# KCNQ2 block = KCNQ2 channel blockers in CHO-K1 cells – cell-based, FluxOR thallium flux, B-score, primary screen (AID 2156); O88943; 20 min; hits give low values; only compounds with negative scores are shown here; some inactives read as strong as hits; B-score at 10 µM; 310,000 compounds, 1.1% hits;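 active means fluorescence ratio B-score at most minus 3 library SDs, with starting brightness B-score within 2 library SDs, cut at about -5.5 in these data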
# Target sequence (O88943 whole entry, looked up): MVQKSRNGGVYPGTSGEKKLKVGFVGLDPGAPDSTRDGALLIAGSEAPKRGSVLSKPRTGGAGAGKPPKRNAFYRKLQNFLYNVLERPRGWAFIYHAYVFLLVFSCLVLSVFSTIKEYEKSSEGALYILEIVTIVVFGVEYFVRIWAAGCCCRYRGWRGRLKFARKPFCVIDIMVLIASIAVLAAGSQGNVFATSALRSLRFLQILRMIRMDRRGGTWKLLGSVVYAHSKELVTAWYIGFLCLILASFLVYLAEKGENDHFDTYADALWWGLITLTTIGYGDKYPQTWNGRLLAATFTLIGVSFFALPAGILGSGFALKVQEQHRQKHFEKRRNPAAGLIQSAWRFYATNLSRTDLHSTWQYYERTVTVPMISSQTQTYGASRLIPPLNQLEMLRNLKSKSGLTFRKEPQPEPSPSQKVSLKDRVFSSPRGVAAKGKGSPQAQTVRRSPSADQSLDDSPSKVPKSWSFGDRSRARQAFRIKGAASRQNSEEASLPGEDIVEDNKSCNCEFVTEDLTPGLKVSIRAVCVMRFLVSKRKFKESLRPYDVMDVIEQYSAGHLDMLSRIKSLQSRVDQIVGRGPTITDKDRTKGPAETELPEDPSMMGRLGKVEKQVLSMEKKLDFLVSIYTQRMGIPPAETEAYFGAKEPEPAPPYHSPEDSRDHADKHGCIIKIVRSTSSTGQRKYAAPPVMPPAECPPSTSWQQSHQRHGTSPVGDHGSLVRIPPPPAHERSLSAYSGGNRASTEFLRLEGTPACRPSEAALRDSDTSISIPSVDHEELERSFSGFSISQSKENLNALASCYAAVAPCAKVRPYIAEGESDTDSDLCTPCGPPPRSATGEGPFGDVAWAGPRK
# KCNQ2 block baseline = further read-out of KCNQ2 block, marked with its call; B-score; measured here: initial fluorescence intensity artifact check;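 brightness before thallium and not channel activity; 0 = typical well and far values either way flag optical interference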
# * hit, by the source's call; i = inactive. These rows are one share of the data, so the mix of outcomes need not match the whole.
SMILES,KCNQ2 block,KCNQ2 block baseline
CCOc1ccc(C(CCc2ccccc2)NC(=O)c2ccccc2OC)cc1OCC (stereo not given),i,0.64
Cc1cccc(-c2nsc(SCC(=O)c3ccc(Cl)cc3)n2)c1,i,-0.26
COCCN1C(=O)C(O)=C(C(=O)c2cccs2)C1c1ccccc1 (stereo not given),i,-0.02
CC(=O)Nc1ccccc1OCc1nnc(-c2ccc(Cl)cc2)o1,i,-0.04
O=C(Nc1ccc2c(c1)OCO2)O[C@@H]1C[C@H]2CCC(=O)N3CC[C@@H](C1)[C@@H]23,i,0.84
O=C(CNc1ccc2ccccc2c1)N/N=C/c1ccc(C(=O)O)cc1,i,1.6
CCCCN(CCCC)C(=O)C1CC=CCC1C(=O)O (stereo not given),i,-0.67
CCCN1CNC(=S)N(c2cccc(C)c2C)C1,i,0.16
Cc1cc([N+](=O)[O-])c(C(C)(C)C)cc1N,i,-0.83
Cn1c(-c2ccccc2)cc(=O)c2ccccc21,i,1
Cc1ccc(C(=O)NNC(=O)c2cc3cc4ccccc4nc3s2)cc1,i,-1.2
Cn1c(SCc2nnc(-c3ccccc3)o2)nc2ccccc21,i,-0.3
CN(C)/C=N/C(=S)Nc1ccccc1Cl,i,0.17
Cc1ccccc1C(=O)Nc1ccc(N2CCN(C)CC2)nc1,i,-0.74
CN(CCOc1ccccc1)CC(=O)Nc1ccc(Cl)cc1[N+](=O)[O-],i,0.91
C#Cc1cccc(C(=O)N2CCCC(C(=O)c3ccc(OC)cc3C)C2)c1 (stereo not given),i,-2.9
CCC(Cc1ccccc1)NC(=O)c1cc(S(=O)(=O)N2CCCCC2)c[nH]1 (stereo not given),i,0.73
O=C(COc1ccccc1)Nc1ccccc1Oc1ccccc1,i,-0.36
Cc1c(Br)c([N+](=O)[O-])nn1CC(=O)N1CCN(C23CC4CC(CC(C4)C2)C3)CC1,i,-0.02
Cc1cccnc1NC(=O)C1CCCN(S(=O)(=O)c2ccc3c(c2)oc(=O)n3C)C1 (stereo not given),i,0.43
CCCCOc1ccc(C(=O)N/C(=C/C=C/c2ccccc2)C(=O)N2CCOCC2)cc1,i,0.47
CC1(C)Cc2c(C#N)c(NC3CCCCC3)nc(-c3ccco3)c2CO1,-13*,1.1*
O=C1CSc2ccccc2N1Cc1ccccc1F,i,-0.48
COc1ccc(-c2ccc(SCC(=O)Nc3nccs3)nn2)cc1OC,i,0.04
CC1CC1C(=O)N1CCN(S(=O)(=O)c2cccc(F)c2)CC1 (stereo not given),i,1.4
COc1ccc(N2CCN(C(=O)C3COc4ccccc4O3)CC2)cc1 (stereo not given),i,0.77
Cc1cc(Nc2ncc(Cl)cc2Cl)n(-c2ccccc2)n1,i,0.98
CC(c1nnnn1C(C)(C)C)N(Cc1cccnc1)Cc1ccccc1Cl (stereo not given),i,-0.48
COc1ccc(/C=N/NC(=O)c2ccccc2OC)cc1COc1ccccc1[N+](=O)[O-],i,2.4
CCN(CC)S(=O)(=O)c1ccc(/C=C/C(=O)OCC(=O)Nc2ccc(S(N)(=O)=O)cc2)cc1,i,0.85
COc1ccc(CCN(CC(=O)NC(C)(C)C)C(=O)Cn2nnc(-c3ccc(C)o3)n2)cc1OC,i,1.4
COCc1ccc(CN2CCCC(CO)(Cc3cccc(Cl)c3)C2)o1 (stereo not given),i,1.4
COc1ccc(C(=O)OCC(=O)N2C(C)CCCC2C)cc1[N+](=O)[O-] (stereo not given),i,-1.4
O=C(c1ccc2c3c(cccc13)CC2)C1CCCN(Cc2cccnc2)C1 (stereo not given),i,-0.6
CC(C)c1nc(SCC(=O)Nc2ccc3c(c2)OCCO3)n[nH]1,i,1.2
CCOC(=O)C1=C(O)/C(=C/c2cn(CC(=O)N3CCCC3)c3ccccc23)SC1=Nc1ccccc1,i,0.19
COc1cc(/C=C/C(=O)O)cc(S(=O)(=O)Nc2ccc(F)cc2)c1OC,i,-1.2
COc1cccc(-c2nc(CS(=O)(=O)CC(=O)NCC(C)c3ccccc3)c(C)o2)c1 (stereo not given),i,-1.5
Cc1ccc(S(=O)(=O)c2ccc(Oc3cccc(C)c3)cc2)cc1,i,0.32
c1cncc(-c2cn(C[C@H]3CC[C@@H]([C@@H]4CC[C@H](Cn5cc(-c6cccnc6)nn5)O4)O3)nn2)c1,i,-1.7
CCC(=O)NC(=S)Nc1cccc(C(C)=O)c1,i,0.28
COc1cccc(-c2csc(N3CCN(C(=O)NC45CC6CC(CC(C6)C4)C5)CC3)n2)c1,i,-0.36
CN(Cc1ccccc1)C(=O)CN1C(=O)NC(C)(c2ccc(Cl)cc2)C1=O (stereo not given),i,-0.29
CCOC(=O)c1cnn(-c2ccccc2)c1NC(=O)c1ccc(C)cc1,i,-0.56
COc1ccccc1NC(=O)CSc1nc(SC)ns1,i,0.56
CCOC(=O)c1ccc(Oc2nc(OC)nc(N(C)C)n2)cc1,i,-1.4
COc1cccc(/C=C/C(=O)OCC(=O)Nc2cc(C(F)(F)F)ccc2Cl)c1,i,-0.17
Nc1nc(O)c(Sc2ccccc2[N+](=O)[O-])c(=O)[nH]1,i,-0.25
O=C1CCC(CCC(=O)N2CCCC(C(=O)c3ccc(Cl)cc3)C2)=NN1 (stereo not given),i,-2
COCCCN(C(=O)Nc1ccc(C)c(C)c1)C(C)c1ccccn1 (stereo not given),i,2.4
COc1cccc(CNc2ccc(S(=O)(=O)Nc3nccs3)cc2)c1O,i,0.16
C=CCn1c(SCC(=O)c2ccc(O)c(O)c2)nnc1-c1ccccc1OC,i,-0.54
NNC(=O)c1cc(-c2ccccc2)sc1N,i,-0.02
COc1ccc(C(=O)/C=C/c2ccc(-c3ccccc3)cc2)cc1CSCC(=O)O,i,-0.01
CCN(CC)c1ccc2cc(C(N)=O)c(=N)oc2c1,i,84
Cc1cccn(Cc2c(Cl)cccc2Cl)c1=O,i,-0.2
CSCC[C@H](NC(=O)CC(C)(C)C)c1nc2ccccc2[nH]1,i,0.29
Cc1ccc(S(=O)(=O)CCC#N)cc1,i,0.08
COc1ccc(C)cc1S(=O)(=O)N(C)CC(=O)NCc1ccco1,i,0.16
COc1cc(C(c2nnnn2C2CCCC2)N2CCN(C(=O)c3ccco3)CC2)cc(OC)c1OC (stereo not given),i,0.25

# Another view of part of the listing above:
# Fields – KCNQ2 block, KCNQ2 block baseline
CCC(=O)NC(=S)Nc1cccc(C(C)=O)c1
  i, 0.28
COc1cccc(-c2csc(N3CCN(C(=O)NC45CC6CC(CC(C6)C4)C5)CC3)n2)c1
  i, -0.36
CN(Cc1ccccc1)C(=O)CN1C(=O)NC(C)(c2ccc(Cl)cc2)C1=O (stereo not given)
  i, -0.29
CCOC(=O)c1cnn(-c2ccccc2)c1NC(=O)c1ccc(C)cc1
  i, -0.56
COc1ccccc1NC(=O)CSc1nc(SC)ns1
  i, 0.56
CCOC(=O)c1ccc(Oc2nc(OC)nc(N(C)C)n2)cc1
  i, -1.4
COc1cccc(/C=C/C(=O)OCC(=O)Nc2cc(C(F)(F)F)ccc2Cl)c1
  i, -0.17
Nc1nc(O)c(Sc2ccccc2[N+](=O)[O-])c(=O)[nH]1
  i, -0.25
O=C1CCC(CCC(=O)N2CCCC(C(=O)c3ccc(Cl)cc3)C2)=NN1 (stereo not given)
  i, -2
COCCCN(C(=O)Nc1ccc(C)c(C)c1)C(C)c1ccccn1 (stereo not given)
  i, 2.4
COc1cccc(CNc2ccc(S(=O)(=O)Nc3nccs3)cc2)c1O
  i, 0.16
C=CCn1c(SCC(=O)c2ccc(O)c(O)c2)nnc1-c1ccccc1OC
  i, -0.54
NNC(=O)c1cc(-c2ccccc2)sc1N
  i, -0.02
COc1ccc(C(=O)/C=C/c2ccc(-c3ccccc3)cc2)cc1CSCC(=O)O
  i, -0.01
CCN(CC)c1ccc2cc(C(N)=O)c(=N)oc2c1
  i, 84
Cc1cccn(Cc2c(Cl)cccc2Cl)c1=O
  i, -0.2
CSCC[C@H](NC(=O)CC(C)(C)C)c1nc2ccccc2[nH]1
  i, 0.29

# The listing continues:
SMILES,KCNQ2 block,KCNQ2 block baseline
COc1ccc(Cn2nnnc2C(c2cc3cccc(C)c3[nH]c2=O)N2CCOCC2)cc1 (stereo not given),i,0.01
CC1(C)C(C=C(Cl)Cl)C1C(=O)N(Cc1ccccc1Cl)C1CCS(=O)(=O)C1 (stereo not given),i,-1.1
COc1ccccc1NC(=O)c1cc2c(=O)n(C)c3ccccc3c2n1C,i,-0.69
CN1CCN(Cc2nc3ccccc3c(=O)n2Cc2nc(-c3ccc4ccccc4c3)cs2)CC1,i,1.7
O=C(Nc1ccccc1)c1ccc(S(=O)(=O)N2CCOCC2)cc1,i,-0.36
N#CC1=C(N)Oc2n[nH]c(-c3cccs3)c2C1c1ccncc1 (stereo not given),i,-1.6
Cc1ccc(CNC(=O)C(Cc2ccccc2)n2cccc2)cc1 (stereo not given),i,-3.2
Nc1nc(-c2ccccc2)[nH]c(=O)c1N,i,0.54
CCOc1ccc(Cl)cc1S(=O)(=O)N1CCN(c2ccc(F)cc2)CC1,i,-0.35
COc1ccc(C(CCNCc2ccc(OC(C)C)cc2)c2ccccc2OC)cc1 (stereo not given),-6.5*,-0.83*
O=C(CSc1nnc(-c2cccs2)n1-c1ccccc1)NCc1ccc2c(c1)OCO2,i,0.04
O=Cc1ccc(OC(=O)Cc2ccc(F)cc2)cc1,i,-0.72
Cc1ccc(-c2cc(C(=O)NCCCN3CCOCC3)c3ccc(Cl)c(C)c3n2)cc1,i,0.11
CC(NC(=O)c1ccc(Cl)cc1Cl)C(c1ccccc1)N1CCOCC1 (stereo not given),i,-1.9
Cc1cc(SCCOc2ccc(Br)cc2)nc(N)n1,i,1.5
COCCN1C(=S)N[C@@H](c2cccc(F)c2)C(C(=O)OC)=C1C,i,-2
CCn1c(SCc2cccc(OC)c2)nc2ccccc2c1=O,i,-0.52
Cc1ccc(NC(=O)c2ccc(S(=O)(=O)N3CCOCC3)cc2)cc1,i,-0.32
CC(C)CC(=O)Nc1cc2nn(-c3ccccc3)nc2cc1Cl,i,-0.52
CCOC(=O)c1ccc(COC(=O)CNS(=O)(=O)c2ccccc2)cc1,i,-1.1
CC1CCCN(c2nc3c(c(=O)[nH]c(=O)n3C)n2CCCc2ccccc2)C1 (stereo not given),i,-0.63
Cc1noc(C)c1C(=O)Nc1ccccc1-c1ccccc1,i,0.27
Cc1ccc2c(c1)CCCN2C(=O)c1ccncc1,i,-2.1
Oc1cc(OCc2ccccc2)ccc1-c1[nH]ncc1-c1ccccc1,i,-0.75
CCOC(=O)C1=C(CSc2nc(CC)c(C)cc2C#N)OC(N)=C(C#N)C1c1ccc(OC)cc1 (stereo not given),i,3.2
COC(=O)NNC(=O)C(C)Oc1ccc(Cl)cc1Cl (stereo not given),i,0.79
COc1cccc(CNC(=O)CCC(=O)N2Cc3cccc(OC)c3Oc3ncccc32)c1OC,i,1.5
c1csc(CNc2ncnc3sccc23)c1,i,1.9
C=CCN(CC=C)Cc1c(O)ccc2c1oc(=O)c1ccccc12,i,0.14
Nc1nc2n(n1)C(c1ccccc1)CC(c1ccc(F)cc1)N2 (stereo not given),i,0.28
COc1ccc(-c2nnc(SCC(=O)Nc3cc(C)on3)n2N)cc1OC,i,0.42
CN(C)CCN1C(=O)C(=O)/C(=C(/O)c2ccc(F)cc2)C1c1ccccc1 (stereo not given),i,-0.06
CC/C(Cc1ccccc1)=N\NC(=O)c1cc(C)oc1C,i,-0.04
Cc1ccc(/C=N/NC(=O)Cn2nccc2C)o1,i,2.4
CCCOc1ccc(/C=C/C(=O)NCc2ccccc2)cc1,i,1.3
CC(C)COP(=O)(c1ccc(N(C)C)cc1)C(O)c1ccccn1 (stereo not given),i,-0.89
Cn1c(COc2ccc([N+](=O)[O-])cc2)nnc1SCC(=O)NCC1CCCO1 (stereo not given),i,-1.6
O=S(=O)(/C(=C/c1ccc(C(F)(F)F)cc1)c1nc2ccccc2[nH]1)c1ccccc1,-7.8*,2.2*
O=C(O)CC/C(=N/Nc1ncc(C(F)(F)F)cc1Cl)C(=O)O,i,0.9
Cc1ccc(C)c2nc(SCC(=O)Nc3ccc4c(c3)OCO4)c(C#N)cc12,i,-0.6
O=C(Nc1cccc(F)c1)N1CCC(c2ccccc2)CC1,i,-0.68
O=C(O)c1cc([N+](=O)[O-])ccc1NCCCc1ccccc1,i,-0.18
CCN=C1S/C(=C/c2ccc(-c3ccc(F)cc3)o2)C(=O)N1CC,i,-0.03
O=C(COC(=O)c1ccccc1NCCO)Nc1cc(C(F)(F)F)ccc1N1CCOCC1,i,-1.5
O=C(NC1CCCC1)C(c1ccccn1)N(C(=O)c1csnn1)c1ccc(F)cc1 (stereo not given),i,0.01
CCn1cc(C2C(C(=O)Nc3cc(C)ccn3)=C(C)NC3=C2C(=O)CC(C)(C)C3)c(C)n1 (stereo not given),i,1.7
O=[N+]([O-])c1c(Nc2ccc(O)cc2)cc(Cl)c2nonc12,-10*,-6.8*
N#CC1(C#N)[C@@H](C(=O)C23CC4CC(CC(C4)C2)C3)C12CCOCC2,i,1.7
O=C(/C=C/c1ccc(F)cc1)c1ccccc1Br,i,1.5
COc1ccc(/C(N)=N/OC(=O)Cc2ccccc2)cc1,i,-0.48
CC(=O)NCC1COc2ccccc2O1 (stereo not given),i,1.9
O=C(COc1ccccc1)Nc1ccc2c(c1)nc1n2CCOC1,i,0.01
CC(C)c1ccc(C2c3[nH]c4ccccc4c3C[C@H]3C(=O)N(c4ccccc4C(=O)N4CCC[C@H]4C(=O)O)C(=O)N23)cc1 (stereo not given in full),i,-1.7
COc1ccc(-c2cc(CC3(C(=O)O)CCN(C(=O)OC(C)(C)C)CC3)on2)c(OC)c1,i,-0.17
Cn1cc(/C=N/Nc2ccccc2)c2ccccc21,i,1.9
Cc1ccc(CNC(=O)CN(c2ccc(C)cc2)S(=O)(=O)c2c(C)n[nH]c2C)cc1,i,2.6
Cc1ccc(CC(=O)NCCCc2ccccc2)cc1,i,0.21
CCN(CC)C(=O)C(=O)c1cccn1-c1cccc(OC)c1C#N,i,0.61
Cc1c(C(=O)NCC2CCCO2)oc2c(Cl)cccc12 (stereo not given),i,-0.36

# Screening results from PubChem BioAssay.
